Screening results as filed in PubChem.
ugtP null kill: growth inhibition of ugtP-null S. aureus, primary screen, RN4220 ugtP deletion, OD600; 16 h; some inactives read as strong as hits; growth inhibition, % (no concentration beside the values); 0.54% of 330,000 active; AID 1259309, 2017;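 active = z-score under -3 and OD600 up to 0.15 on both plates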;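 note: plate controls were untreated wells for no effect and antibiotic for full effect; wells of about 80 µL received 100 nL stock; the first replicate is given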
Sa RN4220 lethal: growth inhibition of S. aureus RN4220, primary screen, OD600 | 16 h | inhibition, % (test concentration not listed) | 0.33% of 330,000 active | AID 1259311, 2017;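 active = z-score of -3 or lower and OD600 up to 0.18 on both plates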;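 note: plate controls were untreated cells for no effect and reference antibiotic for full effect; stock transfer was 100 nL into about 80 µL; one replicate is shown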
Mtb hypoxia rep: PubChem AID 1159583. M. tuberculosis hypoxia-regulated fluorescent reporter, fluorescence. fluorescence inhibition, % (concentration not given with the values). 0.1% of 300,000 active;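 active = 35 to 45% if threefold the growth effect, above 45% if 1.5-fold the growth effect; inactive = the rest, general growth blockers included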;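 note: wells of about 50 µL received 100 nL stock; 0% = vehicle wells and 100% = reference inhibitor wells; whole bacteria with a GFP reporter of the hypoxia response; strong numbers were not always called active; many hits fall short of the cut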
PrP UTR inh: inhibition of PrP 5' UTR reporter expression; cell-based PrP 5' UTR mRNA reporter, plate reader; 0.35% of 340,000 active; inhibition, % (no concentration beside the values); AID 488862, 2010;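 active = every replicate at 50% or more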;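 note: 0 = median of the neutral control wells; tested in H4 reporter cells; numbers are from one replicate; inactives centre near -14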
BJeLR viability: MLPCN primary cell-based screen for lethality selective to Ras in HRASV12 cells | BJeLR (HRASV12) viability, CellTiter-Glo ATP luminescence, 48 h; reference of the scale not given here | inhibition, % (no concentration beside the values) | 0.17% of 300,000 active | AID 1554, 2009;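 active = replicate mean above 50%; inconclusive = above 50% but judged a plate artefact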;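 note: 50 nL library stock added to about 25 µL; numbers are from one replicate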
Autofluor counter: counter-screen for toxin protease inhibitors: compound fluorescence; compound autofluorescence counterscreen, microsphere flow cytometry; active compounds read high; 3.1% of 360,000 active; AID 624483; fluorescence intensity (no concentration beside the values);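 active = at least 3 SD above the mean of all compounds, about 16000 in these data; inconclusive = too few beads counted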;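 note: 100 nL of 1 mM stock went into each well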
Mtb hypoxia rep growth: recorded beside Mtb hypoxia rep, whose call it bears; growth inhibition, %; measured here: M. tuberculosis growth (absorbance);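 0% = vehicle and 100% = reference antibiotic; read after six days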
An asterisk follows results filed as active; ? = inconclusive; . = no result given. No enrichment for hits. Share with any hit: about 3.9%.

SMILES	ugtP null kill	Sa RN4220 lethal	Mtb hypoxia rep	Mtb hypoxia rep growth	PrP UTR inh	BJeLR viability	Autofluor counter
CN(C)c1ccc(NC(=O)CSc2nc3ccccc3c(=O)n2CC2CCCO2)cc1 (stereo not given)	14	2.0	8	4	-9	4	4323
COc1ccc(C(=O)N/C(=C\c2cn(C)c3ccccc23)C(=O)NCCCn2ccnc2)cc1OC	1	0.6	-5	-6	-4	-6	6393
Cc1cccc(C)c1NCc1nnc(SCC(=O)Nc2nc(-c3ccccc3)cs2)n1-c1ccccc1	-10	9.2	0	2	-5	-9	2299
Cc1cc(-c2ccccc2)nc(N(C)C)c1S(C)(=O)=O	9	5.4	6	12	-23	1	4413
CCN(CC)CCCN=C(N)N	9	0.4	0	-7	.	-3	.
COc1ccc(C)cc1S(=O)(=O)n1cnc2ccccc21	.	.	.	.	-13	0	3968
O=C(O)c1ccccc1Sc1ncnc2sccc12	3	-0.3	11	-1	-10	-9	5013
COC(=O)c1ccc(COc2ccc(C=NNC(N)=S)cc2)o1	-19	6.0	.	.	.	.	.
CC1CCN(S(=O)(=O)c2ccc3c(c2)NC(=O)CS3)CC1	-5	1.4	3	1	-11	12	4398
C(=NNc1nc2ccccc2[nH]1)c1ccccc1	0	-0.3	8	-5	.	.	.
CCN(CC)S(=O)(=O)c1ccc(C(=O)NCCCN=C2NS(=O)(=O)c3ccccc32)cc1	7	1.1	.	.	-25	3	2570
C=CCNC(=O)c1c(C(F)(F)F)nn(C)c1Cl	6	4.9	12	2	-1	4	5621
COc1ccc(NC(=O)c2cc(-c3ccco3)on2)cc1OC	-4	-5.2	0	2	-13	-8	3429
COc1ccc2c(c1)-c1c(ssc1=S)C(C)(C)N2C(=O)CSC1=NCCS1	1	0.7	8	14	9	-6	3597
Cc1cc2cc(CNC(=S)Nc3ccc(OC(F)F)cc3)ccc2[nH]1	-8	12	1	-3	-1	8	4447
COc1ccc(NC(=O)O/N=C2/CCCc3ccc(OC)cc32)cc1	.	.	.	.	-28	-4	2895
COC(=O)NC1CSCC1OC(=O)c1ccc(Br)cc1 (stereo not given)	7	3.2	4	6	-25	-4	22183*
CC(O)(C#CCN1CCCC1)c1ccccc1 (stereo not given)	1	2.0	1	3	-33	0	6181
COc1cc(C(=O)OCC(=O)N(CC(C)C)C2CCS(=O)(=O)C2)cc(OC)c1C (stereo not given)	2	5.9	-10	6	4	.	5571
O=C(NCCN1C(=O)S/C(=C\c2ccc(Cl)cc2Cl)C1=O)C1=COCCO1	8	4.9	8	-1	-23	-1	5174

In another format: results already given.
Order of results: ugtP null kill	Sa RN4220 lethal	Mtb hypoxia rep	Mtb hypoxia rep growth	PrP UTR inh	BJeLR viability	Autofluor counter
- CCN(CC)S(=O)(=O)c1ccc(C(=O)NCCCN=C2NS(=O)(=O)c3ccccc32)cc1
  7	1.1	.	.	-25	3	2570
- CC(O)(C#CCN1CCCC1)c1ccccc1 (stereo not given)
  1	2.0	1	3	-33	0	6181

Going on with the list:
SMILES	ugtP null kill	Sa RN4220 lethal	Mtb hypoxia rep	Mtb hypoxia rep growth	PrP UTR inh	BJeLR viability	Autofluor counter
OC(COc1ccc(OCC(O)CN2CCCCC2)cc1)CN1CCCCC1 (stereo not given)	3	3.2	2	-5	-10	12	.
CC(C)(C)C(=O)NC(=O)Nc1ccccc1C(F)(F)F	1	4.3	-5	-6	-23	-2	5690
COc1cccc(C(=O)NNC(=O)C(=O)Nc2ccc(OC)cc2OC)c1	0	3.8	-1	-6	-18	-1	5497
CCn1cc(C(=O)OCC(=O)Nc2ccccc2OC(F)F)c(=O)c2ccc(C)nc21	2	2.4	9	5	1	.	4092
Cc1c(NC(=S)N/N=C/c2ccc([N+](=O)[O-])cc2O)c(=O)n(-c2ccccc2)n1C	.	.	.	.	-21	9	3284
Cn1c(SCC(=O)CC(=O)Nc2ccccc2)nnc1-c1ccc(O)cc1	4	2.3	5	7	-11	-3	10962
Cc1cccc(OCC(=O)NN=Cc2ccccc2C(=O)O)c1	6	11	-8	0	.	.	.
O=C(NCCS(=O)(=O)NC1CCCC1)c1ccccc1	9	2.0	0	-5	-30	1	?
O=C(Nc1ccc(Cl)cc1)N1CCCN(Cc2ccccc2F)C1	-18	-8.3	7	6	.	2	13183
c1ccc(C(c2ccccc2)N2CCN(Cc3nc(-c4cnccn4)no3)CC2)cc1	14	2.1	-2	3	-9	6	4645
CCc1noc(C)c1C(=O)OCC(=O)Nc1ccc2c(c1)OCO2	9	6.1	-3	6	-23	.	.
CCCSc1nc(O)c(C(c2ccc(OC)c(O)c2)c2c(O)nc(SCCC)n(C)c2=O)c(=O)n1C	3	6.9	-4	-2	-28	10	2339
CCOC(=O)Cn1c(=O)cnc2ccccc21	-1	0.3	.	.	-6	11	5405
CCCCCc1cccnc1	-13	-2.4	-24	2	-24	-2	3693
CCOC(=O)N1CCN(C(=O)Cc2c(C(=O)O)n(C)c3ccccc23)CC1	-1	6.3	2	4	3	-5	4418
Cc1nnc(C)n1N=Cc1ccc(C(C)C)cc1	3	6.2	2	4	.	.	.
CN(C(=O)c1cccc(NC(=O)Cc2ccc(NC(=O)C3CCCN(C(=O)C4CCCCC4)C3)cc2)c1)C1CCCC1 (stereo not given)	6	1.9	-4	2	0	.	2896
COc1ccc(CN2CC(C(=O)NCCCN3CCCCCC3)CC2=O)cc1 (stereo not given)	3	3.9	14	13	-2	-1	3523
CC(C)COc1ccc(CNC(=S)NN=Cc2ccc([N+](=O)[O-])cc2)cc1	-4	5.5	2	6	.	.	.
NC(=O)C1CCN(C(=O)c2ccc3c(=O)n(Cc4ccco4)c(SCC(=O)c4ccccc4)nc3c2)CC1	4	8.2	9	1	-4	-4	3250
Cc1ccc(CSc2ncnc3ccccc23)cc1	7	8.7	9	9	-11	3	3700
CCC(=O)Nc1cc2c3c(c1)CCN3C(=O)CC2	10	4.7	14	4	-6	8	4041
S=C(NCc1ccc(Cl)cc1)Nc1ccccc1	-10	-0.1	6	1	-13	0	2219
CCn1c(N)c(C(N)=O)sc1=S	1	4.0	.	.	-8	1	3254
COc1cccc(/C=C/C(=O)OCC(=O)N2CCN(S(=O)(=O)c3ccc(Cl)cc3)CC2)c1	-8	1.7	-1	5	-19	-3	5780
O=C(CN1C(=O)NC2(CCCc3ccccc32)C1=O)N1CCN(c2cccc(C(F)(F)F)c2)CC1 (stereo not given)	1	2.4	21	11	-15	.	4011
COc1ccc(/C=N/NC(=O)c2ccc(F)cc2)cc1CN1CCc2cc(OC)c(OC)cc2C1C (stereo not given)	.	.	.	.	-10	3	6279
CCc1ccc(C(=O)NC(=S)Nc2ccc(N3CCOCC3)cc2)cc1	89*	-3.4	.	.	-33	8	2179
COc1cc(C)ccc1OCCCCNCc1ccccc1	9	3.8	7	4	-12	-1	3051
COc1ccc(N2CCN(/C(=N\S(=O)(=O)c3ccc(C)cc3)Nc3nc(C)cc(C)n3)CC2)cc1	1	3.1	10	5	-20	-1	19034*
CCN(CC)CCCN(C(=O)c1ccc(F)cc1)c1nc(-c2ccc(OC)cc2)cs1	7	-0.1	10	11	-15	1	3848
CCOc1ccccc1C(c1c(C)n(C)n(-c2ccccc2)c1=O)c1c(C)n(C)n(-c2ccccc2)c1=O	5	0.1	8	2	-34	5	4255
O=C(Nc1ccc(F)cc1)c1ccc(C(=O)N2CCCC(O)C2)cc1 (stereo not given)	-14	-5.2	0	0	5	11	2828
CCN(CC(=O)Nc1ccc(NC(C)=O)cc1)C(=O)COc1ccccc1Cc1ccccc1	-1	-1.0	-15	-7	10	-2	4339
CC[C@]12c3[nH]c4cc(CCC(=O)N(C)C)ccc4c3CCN1C(=O)[C@@H](CC(=O)NCCCN(C)C)C[C@@H]2C(=O)N1CCN(C(=O)C2CC2)CC1	3	1.2	-7	3	-2	.	3848
COc1cc(/C=C(/C#N)C(=O)Nc2ccc(C)cc2)ccc1Oc1nc(Cl)ncc1F	.	.	.	.	-18	13	2236
COc1ccc(-n2nc3c(N4CCC(C(=O)NCc5cccc(C)c5)CC4)nnc(C)c3c2C)cc1	-12	-12	-7	14	-31	-1	12492
CCN=C1S/C(=C\c2cc(Cl)c(OC)c(OC)c2)C(=O)N1CC	0	-3.9	-2	-7	-19	-5	3132
CN(C)c1nc(NCc2ccccc2)nc(N/N=C/c2ccc(Br)cc2)n1	.	.	.	.	5	-6	2043
O=C(O)c1ccc(N/N=C/c2ccc3nccnc3c2)cc1	.	.	.	.	84*	24	3723
COc1ccc(-c2cc(C(=O)Nc3ccc4c(c3)OCO4)no2)cc1	3	1.2	1	1	-26	-4	3623
COc1nnc(-c2ccc(C)c(S(N)(=O)=O)c2)c2ccccc12	7	3.0	16	2	-9	1	3710
O=C(O)c1ccc(-n2cccc2/C=C2/SC(=O)N(CC(=O)N3CCCC3)C2=O)cc1	.	.	.	.	-24	-8	5710
O=C(NOCc1ccccc1)c1ccccc1	-3	-3.3	-1	0	-53	-9	3988
CCOc1ccc(C(=O)NCC(=O)N2CCN(c3ccc(C(F)(F)F)cn3)CC2)cc1	-2	-0.9	3	10	5	.	7852
CCOC(=O)C1CCN(Cc2c(O)c3ccccc3oc2=O)CC1	6	15	-3	-10	-22	2	2430
Cc1ccc(-c2nnn(CC(=O)N(CC(=O)NC3CCCCC3)c3cccc(F)c3)n2)o1	-2	-1.2	-13	-4	-20	-16	4997
CC1CCCC(NC(=O)Cn2cc(C(F)(F)F)cc(Cl)c2=O)C1C (stereo not given)	2	0.7	9	9	-20	.	8790
O=Cc1cc2ccccc2nc1SCc1ccc(Cl)c(Cl)c1	99*	56	.	.	51	55*	2543
O=[N+]([O-])c1ccc(NN=Cc2ccc[nH]2)cc1	-16	4.3	9	0	.	.	.
CCOC(=O)c1[nH]c2ccccc2c1NC(C)=O	-2	0.6	0	4	-7	-5	4394
O=C(CSC1=NCCS1)N1CCN(c2ccccc2)CC1	-4	-2.4	.	.	-14	6	2179
CCOc1ccc(C=NNc2nc(C)cs2)c(O)c1	4	7.0	.	.	.	.	.
COC(=O)c1ccc(NC(=S)NC(=O)c2cc(-c3ccccc3)nc3ccccc23)cc1	.	.	.	.	-13	-2	4113
O=C(NCc1cccnc1)C(=O)NCC(c1ccco1)N1CCN(c2ccccc2F)CC1 (stereo not given)	10	1.6	2	1	-25	-11	2523
COc1cc(/C=C/c2ccc(O)cc2)cc(OC)c1	10	13	.	.	-17	2	4708
O=C1c2ccccc2C(=O)N1CCCc1nc(-c2ccc(Cl)cc2)no1	4	0.0	-1	8	-9	10	6055
Cc1ccc2nc(C)c(C)nc2c1N	-9	4.2	.	.	-11	-23	2497
CC(C)C(NC(=O)c1ccccc1)C(=O)OCc1cc([N+](=O)[O-])cc2c1OCOC2 (stereo not given)	10	3.2	-8	-5	-7	8	2741
Cc1cc(C(=O)NCc2cccs2)ccc1[N+](=O)[O-]	6	-0.3	.	.	-27	12	2280

Additional entries
SMILES	ugtP null kill	Sa RN4220 lethal	Mtb hypoxia rep	Mtb hypoxia rep growth	PrP UTR inh	BJeLR viability	Autofluor counter
COc1ccccc1N1CCN(C(=O)c2cc(-c3cccs3)on2)CC1	0	2.6	-3	-2	-14	-16	9866
CCOC(=O)c1c(C)[nH]c(C(=O)OCC(=O)Nc2sc(C(=O)N(C)C)c(C)c2C(=O)OCC)c1C	0	3.9	4	8	-9	-5	5258
CSc1oc(-c2ccc(F)cc2)nc1S(=O)(=O)c1ccccc1	-4	3.8	-1	-4	-24	-5	9191
CCN1CCN(Cc2ccc(OC)c(OCc3ccccc3)c2)CC1	2	-2.1	3	11	-22	6	9913
O=C(Nc1nnc(Cc2ccccc2)s1)c1ccccc1	.	.	.	.	-42	-14	4183
O=C(NCC(=O)N(CC1CCCO1)C(C(=O)NC1CCCCC1)c1ccccc1)c1ccco1 (stereo not given)	4	2.4	0	0	-21	-3	2544
Cc1nc(COc2cc3oc(=O)cc(C)c3cc2Cl)cs1	-10	3.5	7	0	-34	-7	3968
COc1ccc(C(C)=NNC(=O)CNC(=O)c2ccco2)c(OC)c1	5	5.0	10	12	.	.	.
O=C(COC(=O)c1ccccn1)Nc1nc(-c2ccccc2)cs1	2	1.8	5	-10	-34	4	4448
COc1ccc(NC(=O)N2CCC(O)(c3cccnc3)CC2)c(OC)c1	4	3.7	.	.	5	5	3023
N#CCCC(CCC#N)C1=NCCc2ccccc21	2	1.7	-1	4	-19	12	4384
CN(C)c1ccc(C=NNC(=O)c2ccco2)cc1	-1	5.3	3	-1	.	.	.
